Screening results from PubChem.
RecA splice inh = blocks M. tuberculosis RecA intein splicing; actives 0.75% (n = 290,000); cell-free RecA intein splicing, fluorescence; inhibition, %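 (about 9 µM by stock and volumes)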; in the data active = inhibition above about 30%; inconclusive = no clear call, values can overlap the other calls;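 also: 0% = vehicle wells and 100% = reference inhibitor control wells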
Target sequence (P9WHJ3 whole entry, looked up, canonical isoform): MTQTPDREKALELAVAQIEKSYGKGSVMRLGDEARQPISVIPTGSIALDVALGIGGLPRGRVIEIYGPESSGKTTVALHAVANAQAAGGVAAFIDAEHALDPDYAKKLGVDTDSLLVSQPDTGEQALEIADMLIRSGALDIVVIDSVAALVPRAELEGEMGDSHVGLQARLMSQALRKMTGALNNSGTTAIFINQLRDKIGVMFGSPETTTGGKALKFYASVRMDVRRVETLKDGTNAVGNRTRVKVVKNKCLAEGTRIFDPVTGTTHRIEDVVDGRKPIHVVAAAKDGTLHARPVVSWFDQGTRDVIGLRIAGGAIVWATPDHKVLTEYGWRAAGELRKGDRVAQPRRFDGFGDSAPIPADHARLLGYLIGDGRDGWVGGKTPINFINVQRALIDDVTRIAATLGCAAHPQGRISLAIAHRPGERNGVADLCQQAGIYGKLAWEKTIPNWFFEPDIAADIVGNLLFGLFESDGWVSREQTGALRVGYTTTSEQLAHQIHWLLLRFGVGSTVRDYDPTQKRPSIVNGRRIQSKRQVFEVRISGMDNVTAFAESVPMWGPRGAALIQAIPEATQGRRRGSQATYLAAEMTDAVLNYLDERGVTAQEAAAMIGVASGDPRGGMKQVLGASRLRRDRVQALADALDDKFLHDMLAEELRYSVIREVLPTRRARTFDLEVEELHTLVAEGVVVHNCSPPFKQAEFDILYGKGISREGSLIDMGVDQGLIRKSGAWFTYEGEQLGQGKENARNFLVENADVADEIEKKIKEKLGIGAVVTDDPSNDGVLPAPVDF
YopH PTP inh = blocks Yersinia enterocolitica YopH tyrosine phosphatase. AID 898. inhibition, %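 (about 10 µM by stock and volumes)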. actives 0.16% (n = 140,000). fluorescence Ex485/Em525;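 active = inhibition of 50% or more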;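 also: controls were vehicle for no effect and minimum signal wells for full effect; inactives centre near -20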
Mtb H37Rv = M. tuberculosis H37Rv growth inhibitors, H37Rv strain (AID 1626); M. tuberculosis H37Rv growth inhibition; higher % means a stronger effect; one-dose inhibition, % at 10 µM; IC50 in µM for titrated hits; actives 0.95% (n = 220,000);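 active = confirmed in a dose series; inconclusive = inhibition above 80% but not taken into the dose series; inactive = below 80% or under 30% at every dose of the series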;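 also: bacteria incubated seven days before Alamar blue readout; 0% = bacteria only wells and 100% = bacteria with antibiotic wells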
Mtb betalactam = beta-lactam sensitization of Mtb H37Rv; M. tuberculosis H37Rv growth with meropenem, percent inhibition; hits of this screen are not shown here; actives 0.27% (n = 330,000); inhibition, % at 25 µM; AID 434955;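 active = about 74% or more and at least 40 points above the plate without the antibiotic, then above 30% in a dose series; inconclusive = first-round hits that could not be retested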;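 also: growth measured after seven days incubation then overnight dye step; 0% = bacteria only wells and 100% = bacteria with antibiotic; twin plates without the antibiotic show which effects depend on it; some results filed as inactive read as strong as hits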
Arbovirus inh = blocks arbovirus infection; arbovirus infection cell-based antiviral screen; inhibition, % at 10 µM; actives 0.37% (n = 200,000);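 active = inhibition from about 30%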;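 also: bluetongue infection of BSR cells; cell survival read as ATP light after 72 h; 0% = infected wells without compound and 100% = uninfected wells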
Arbovirus inh repeat = further read-out of Arbovirus inh, marked with its call; inhibition, %; measured here: 10K subset replicate screen; many hits read low in the repeat;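 first of two repeat runs on a subset; 0% = infected and 100% = uninfected wells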
* = called active by the depositor; u = inconclusive; x = not tested or not shown; & = joins results of further samples. Some of the compounds tested; the hit share may differ from the screen's.

SMILES	RecA splice inh	YopH PTP inh	Mtb H37Rv	Mtb betalactam	Arbovirus inh	others
COC(C)(C)[C@H](O)COc1c2ccoc2cc2oc(=O)ccc12	-3.6	-21	-6%	-11	3
Cc1ccc(S(=O)(=O)Nc2cccc(C(=O)NCC(c3ccco3)N(C)C)c2)cc1F (centres undefined)	-1.0	x	x	-6	x
O=C(CSc1ncn[nH]1)Nc1nc(-c2ccccc2)cs1	0.2	-27	0%	94	12
Cc1sc2ccccc2[n+]1CC(=O)c1ccccc1	2.3	x	x	4	x
CCOc1ccc(-c2cc(C(=O)N/N=C/c3ccc(O)cc3)c3ccccc3n2)cc1	-12	x	x	-4	x
COc1ccccc1NC(=O)Cc1cccc2ccccc12	1.7	x	x	9	x
Cc1cc(C)c(OCC(=O)N(Cc2cccs2)C2CCS(=O)(=O)C2)c(C)c1 (centres undefined)	2.3	x	x	-4	x
Cc1ccccc1C(=O)NCCOc1ccccc1Cl	-0.3	x	x	-6	x
Cc1cccc(N2CCN(C(=O)c3cc(S(=O)(=O)N4CCCC4)cn3C)CC2)c1C	2.8	x	x	-3	x
O=C1CCc2cc(S(=O)(=O)N3CCN(Cc4ccc5c(c4)OCO5)CC3)ccc2N1	-3.0	-42	-9%	-7	-1
O=C(c1ccc(Br)o1)N1CCN=C1SCc1cccc(F)c1	x	-27	6%	2	-6
C=CCNC(=S)NNC(=O)c1cccn(Cc2ccc(Cl)c(Cl)c2)c1=O	5.2	-1	9%	7	-7
O=C(c1ccco1)N(CCC(c1ccccc1)c1ccco1)Cc1ccccc1 (centres undefined)	17	-8	2%	-4	4
CC(C)CCN1CCNC(=O)C1CC(=O)Nc1ccc(F)cc1 (centres undefined)	6.3	-34	3%	9	3
CN(Cc1ccccc1)C(=O)CNC(=O)Cn1cnc2ccccc2c1=O	1.0	11	-5%	-2	-4
COc1cc(CC(=O)NCc2ccccn2)cc(OC)c1OC	0.7	-3	-6%	-8	2
O=C(NC1CCN(S(=O)(=O)c2cccc(F)c2)CC1)c1cccc(F)c1	-1.5	x	x	1	x
COc1cc(O)sc1C=Nc1ccc(Cl)cc1	-2.7	x	4%	8	2
COc1ccc(C(=O)NC(C)c2ccccc2)cc1Br (centres undefined)	2.5	x	2%	5	1
COc1ccc(N2CCN(CCNC(=O)CCN3C(=O)COc4ccccc43)CC2)cc1	5.0	-32	3%	3	1
CCN(CC)CCNC(=O)/C(=C/c1cn(CC)c2ccccc12)NC(=O)c1cc(OC)c(OC)c(OC)c1	-2.6	x	9%	5	9
COc1ccc2nc(NC(=O)c3cccs3)sc2c1	-3.4	x	-7%	9	x
CCOC(=O)C1CCN(C(=O)c2ccc(Cl)c(Cl)c2)CC1	x	-18	0%	-11	2
O=C(NCc1ccc2c(c1)OCO2)NC12CC3CC(CC(C3)C1)C2	1.8	x	-1%	33	3
CC(OC(=O)CCCCCN=C1NS(=O)(=O)c2ccccc21)C(=O)Nc1cc(Cl)cc(Cl)c1 (centres undefined)	2.0	-7	-4%	4	0
Cc1ccc(Cn2c(C(C)Nc3nc(-c4ccc(F)cc4)cs3)nc3cc(Cl)c(Cl)cc32)cc1 (centres undefined)	2.0	x	-2%	4	x
COCCNC(=O)/C(C#N)=C/c1cc(C(C)C)c(OC)cc1C	x	x	-1%	6	0
COc1ccc(OC)c(S(N)(=O)=O)c1	0.1	-20	2%	-5	-1
O=C(N/N=C\c1ccc(OC(=O)c2ccco2)cc1)c1ccc(Cl)cc1	5.2	x	63%	86	-27
CC(=O)c1cc2c(=O)c3cc(C)ccc3oc2nc1C	0.4	-19	-13%	74	-9
COc1ccc(OC)c(C(=O)c2ccccc2)c1	2.4	37	-2%	7	-8
COc1ccc(-c2ccc(NS(=O)(=O)c3cccc([N+](=O)[O-])c3)cc2)nn1	-1.3	x	x	8	x
COc1ccc(C(NC(=O)C(C)C)c2c(O)ccc3ccccc23)cc1 (centres undefined)	-4.2	x	-9%	-2	-14
CCN(CC)S(=O)(=O)c1ccc(NC(=O)c2cnccn2)cc1	3.6	x	x	-6	x
FC(F)(F)c1cnc(C(c2ccccn2)c2ncn[nH]2)c(Cl)c1 (centres undefined)	-8.6	x	0%	1	-22
CCSc1nc2ccccc2c(=O)n1C1CCOC(C)(C)C1 (centres undefined)	4.8	x	-5%	-6	-4
Cc1c(NC(=O)CCSc2ccc(Cl)cc2)c(=O)n(-c2ccccc2)n1C	0.1	3	-7%	-5	0
CCc1ccc(C(C)NC(=O)C2(C)CC2(Br)Br)cc1 (centres undefined)	0.7	-6	x	-2	0
COC(=O)c1ccc(C(=O)OC)c(NC(=O)CN(c2ccc3c(c2)OCO3)S(C)(=O)=O)c1	-14	-29	6%	3	-3
Cc1nc2cc(NC(=O)Nc3ccc(N4CCOCC4)cc3)ccc2n1C	-1.6	-11	-4%	-1	-3

Sorted by formula weight (low to high): part of the list above.
SMILES	RecA splice inh	YopH PTP inh	Mtb H37Rv	Mtb betalactam	Arbovirus inh	others
Cc1sc2ccccc2[n+]1CC(=O)c1ccccc1	2.3	x	x	4	x
COC(C)(C)[C@H](O)COc1c2ccoc2cc2oc(=O)ccc12	-3.6	-21	-6%	-11	3
CCOC(=O)C1CCN(C(=O)c2ccc(Cl)c(Cl)c2)CC1	x	-18	0%	-11	2
CCN(CC)S(=O)(=O)c1ccc(NC(=O)c2cnccn2)cc1	3.6	x	x	-6	x
COc1ccc(C(NC(=O)C(C)C)c2c(O)ccc3ccccc23)cc1 (centres undefined)	-4.2	x	-9%	-2	-14
O=C(c1ccc(Br)o1)N1CCN=C1SCc1cccc(F)c1	x	-27	6%	2	-6

Following part.
SMILES	RecA splice inh	YopH PTP inh	Mtb H37Rv	Mtb betalactam	Arbovirus inh	others
Cc1ccc(NC(=O)CN2C(=O)NC3(CCCC3)C2=O)nc1	0.5	x	x	-5	x
CCOC(=O)c1c(C)nc2ccc(Cl)cc2c1-c1ccccc1	17	-29	8%	6	-12
CCCc1nnc(NC(=O)CSc2nc3ccccc3[nH]2)s1	1.0	x	0%	0	23
CCOC(=O)C(Cc1ccccc1)NC(=O)CNC(C)=O (centres undefined)	x	-42	-2%	-14	2
COc1cccc(C(=O)N2N=C(c3ccccn3)CC2(O)C(F)(F)F)c1 (centres undefined)	2.1	x	73%	97	x
CCOC(=O)c1cc(-c2ccccc2)nn1CC1CC(c2cccc([N+](=O)[O-])c2)=NO1 (centres undefined)	2.0	x	9%	-6	x
CCCC(=O)N1CCN(c2nc3ccccc3s2)CC1	2.9	x	x	4	x
CCOC(=O)COc1ccc(C(=O)CC)cc1OC	-1.5	x	5%	72	1
COCCCNC(=O)Cn1nc(-c2cccc(OC)c2)ccc1=O	-0.2	x	x	-1	x
CCN(C(C)=O)c1nc(CSc2nnc(NC(C)C)s2)cs1	0.6	-29	-9%	0	2

A portion from the list above:
SMILES	RecA splice inh	YopH PTP inh	Mtb H37Rv	Mtb betalactam	Arbovirus inh	others
COC(C)(C)[C@H](O)COc1c2ccoc2cc2oc(=O)ccc12	-3.6	-21	-6%	-11	3
Cc1ccc(S(=O)(=O)Nc2cccc(C(=O)NCC(c3ccco3)N(C)C)c2)cc1F (centres undefined)	-1.0	x	x	-6	x

New compounds follow.
SMILES	RecA splice inh	YopH PTP inh	Mtb H37Rv	Mtb betalactam	Arbovirus inh	others
Cc1occc1C(=O)N(C)CC1CCCN(CCc2ccccc2F)C1 (centres undefined)	1.3	x	x	-5	x
C[C@H]1O[C@@H](O[C@H]2[C@@H](O)C[C@H](O[C@H]3[C@@H](O)C[C@H](O[C@H]4CC[C@@]5(C)[C@H](CC[C@@H]6[C@@H]5C[C@@H](O)[C@]5(C)[C@@H](C7=CC(=O)OC7)CC[C@]65O)C4)O[C@@H]3C)O[C@@H]2C)C[C@H](O)[C@@H]1O	-0.2&-2.7	-29	4%	-8&-11	9
COc1cc(OC)cc(-c2cc(NC(C)=O)n[nH]2)c1	-3.7	-18	1%	4	2	Arbovirus inh repeat=0
Cc1ccc(Nc2nc(-c3ccccc3)c(CC(=O)O)s2)cc1	x	x	15%	6	21
S=C(NCCc1ccccc1)NC1CCCCCC1	5.6	-31	-6%	1	29
C=CCOC(=O)C1=C(C)N=C2SCCC(=O)N2C1c1cccs1 (centres undefined)	2.2	-2	-5%	3	2
O=S1(=O)CCN(C(CO)c2ccccc2)CC1 (centres undefined)	-3.0	x	2%	2	-1
COc1ccccc1OC(C)C(=O)Nc1ccc2c(c1)OCCO2 (centres undefined)	-3.6	x	x	-2	x
CCOC(=O)C1CCCN(C2=NC(=O)/C(=C/c3ccc(O)c(OC)c3)S2)C1 (centres undefined)	2.9	x	x	5	x
Clc1ccccc1-c1nnc2n1-c1ccccc1SC2	3.3	x	4%	5	x
CC(=O)Nc1nonc1NC(=O)c1ccc(F)cc1	-2.3	-17	-11%	0	-4
Clc1ccc(Cc2noc(-c3cccs3)n2)cc1	2.6	-37	2%	39	5
CCOC(=O)c1ccc(NC(=O)c2c(C)[nH]c(C(=O)OCC)c2C)cc1	-2.2	-44	5%	87	3
CCCS(=O)c1nc(C)cc(C)c1S(C)(=O)=O (centres undefined)	1.2	x	8%	-2	1
Cn1c(NC(=O)c2cc(Cl)ccc2Cl)cc(=O)n(C)c1=O	-1.8	-23	2%	-4	2	Arbovirus inh repeat=-4
COP(=O)(OC)C(Nc1ccccc1)c1ccccc1 (centres undefined)	-3.7	x	x	-2	x
O=C(CCCCCN1C(=O)C2C3C=CC(C3)C2C1=O)Nc1nccs1 (centres undefined)	-0.9	x	-6%	-3	0	Arbovirus inh repeat=-2
CN(C)C(=O)C1C2NC(=S)N(c3ccccc3)C1(C)Oc1ccccc12 (centres undefined)	0.6	x	-3%	-8	1
COCCN1Cc2cccc(C(=O)Nc3ccc(S(=O)(=O)N4CCCCC4)cc3)c2C1=O	1.7	x	0%	-6	x
CN(C)c1ccc(/C=C/c2nnnn2-c2ccccc2)cc1	-135	-51	6%	-5	-14
COc1ccc(N2CCN(C(=O)CCCC3=NS(=O)(=O)c4ccccc4N3)CC2)cc1	-2.4	-54	-2%	-7	6
O=C(NCCCO)c1cc2ccccc2[nH]1	3.2	x	-5%	-3	2
CCN1CCCC1Cn1cnc2c([nH]c3ccc(Cl)cc32)c1=O (centres undefined)	-0.4	-8	6%	6	-19
CC(=O)N(c1ccc2oc(=O)sc2c1)S(=O)(=O)c1cccc2cccnc12	-2.8	x	x	-5	x
O=C(COc1ccc(Br)cc1)Nc1ccccc1C(=O)N1CCOCC1	-1.2	x	x	2	x
CCc1cc2c(SCC(=O)N3CC(=O)Nc4ccccc43)ncnc2s1	-2.9	-9	5%	-1	-2
O=C(NCc1ccncc1)C(=O)N/N=C/c1ccccn1	-4.1	x	-3%	-6	-6
OC(CN1C2=NCCCN2c2ccccc21)c1ccc(Cl)cc1 (centres undefined)	x	x	6%	-3	7	Arbovirus inh repeat=-5
CCC(Sc1nc(C)cc(C)n1)C(=O)O (centres undefined)	-1.8	-34	-7%	-3	-3
O=C(O)C1CCCN(S(=O)(=O)Cc2ccccc2)C1 (centres undefined)	-2.9	x	x	3	x

Two records drawn at random from the list so far:
SMILES	RecA splice inh	YopH PTP inh	Mtb H37Rv	Mtb betalactam	Arbovirus inh	others
CC(=O)N(c1ccc2oc(=O)sc2c1)S(=O)(=O)c1cccc2cccnc12	-2.8	x	x	-5	x
CCc1cc2c(SCC(=O)N3CC(=O)Nc4ccccc43)ncnc2s1	-2.9	-9	5%	-1	-2

The results go on:
SMILES	RecA splice inh	YopH PTP inh	Mtb H37Rv	Mtb betalactam	Arbovirus inh	others
Cc1ccc(NC(=O)N2CCN(S(=O)(=O)c3ccccc3)CC2)cc1	1.1	x	4%	-8	6
CC(C)OC(=O)c1sc2nc3c(cc2c1N)C(=O)CCC3	4.6	-16	x	37	-1
O=C1COc2ccc(S(=O)(=O)N3CCC(C(=O)NCc4ccc(F)cc4)CC3)cc2N1	0.4	x	x	-5	x
Cc1ccc(-c2nc3ccccc3c(=O)n2-c2ccc(O)cc2)cc1	-2.4	x	u	99	7
O=C(CCc1ccc(S(=O)(=O)NCCc2ccccc2)cc1)NCc1ccc2c(c1)OCO2	0.0	0	8%	4	-3
CCOC(=O)C1=CN(Cc2ccc(OC)cc2)C=C(C(=O)OCC)C1c1cccs1	-14	x	-1%	5	6
CCN1CCN(c2cc(C)c3cc(NC(=S)N4CCCC(C)C4)ccc3n2)CC1 (centres undefined)	-6.8	x	8%	0	-12
C/C(=N/NC(=O)c1ccoc1C)C12CC3CC(CC(C3)C1)C2	-0.6	-35	-3%	-2	7
C=CCN1C(=O)/C(=C\c2cccs2)C(C(=O)OC)=C1C	-2.2	-19	3%	5	-1
CC(=O)c1ccc(NC(=O)C2CCC(C)(C(=O)O)C2(C)C)cc1 (centres undefined)	-0.1	-34	-9%	6	0	Arbovirus inh repeat=5
CCn1c(=O)cc(OCC(=O)N2CCc3ccccc32)c2ccccc21	x	-25	-6%	x	-6	Arbovirus inh repeat=-3
COc1ccc(S(=O)(=O)N(Cc2ccccc2)Cc2nc3ccccc3c(=O)[nH]2)cc1	-2.4	-20	7%	-8	-4
